# Bioassay records deposited in PubChem BioAssay by National Center for Advancing Translational Sciences (NCATS).
# Rango dissoc inh: prevents RanGTP from dissociating the Rango-importin beta complex. O95149+P62826. Biochemical FRET Rango-importin beta, RanGTP-induced dissociation. Potency, µM (doses to about 46.1 µM), without a hit: top-dose activity change, negative = inhibition. 0.071% of 340,000 active. AID 540253; active means falling FRET ratio curve, often poorly fitted, with flat reads before Ran was added; inconclusive means other falling curves, or compound fluorescence or quenching; inactive means flat or rising ratio curve;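 note: potency is the fitted concentration of half-maximal effect; % of control where 0% means no effect; nearly all actives have a fitted effect of over 45% in size; -100% = wells without RanGTP and RCC1; the record marks most hits as doubtful in a second field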
#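 Rango/importin beta premix (0.1/0.25 uM final), PBS + 1 mM DTT + 0.02% Tween-20 + 0.1% BSA; cpd 5 min RT; FRET pre-read; + RanGTP-RCC1 (0.6 uM Ran, 2 mM GTP, 0.2 uM RCC1); 45 min RT; FRET post-read, ex 430, em 486/530 nm.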
# miR-21 reporter: raises the signal of a miR-21 reporter | Potency, µM (highest dose often 38.3 µM), without a hit: top-dose reporter change, positive = more light | 340,000 tested, under 10 active | HeLa miR-21 FLuc reporter, luciferase, 48 h | AID 2288; active = well fitted rising curve with a large enough effect; inconclusive = small, poorly fitted or top-dose-only effect; inactive = no such curve, though single readings can be large or run the other way;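 note: % of control where 0% means no effect; miR-21 action dims this reporter so a rising signal means less miR-21 action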
#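 HeLa miR-21-FLuc reporter line, endogenous miR-21; 2000 cells/well in DMEM/10% FBS; compound titration up to ~40uM final, 48 h, 37 degree Celsius; luciferase detection reagent, 15 min lysis, CCD luminescence.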
# Rango complex inh: Rango-importin beta binding inhibition; Potency, µM (titrated, usually from 92.2 µM), without a hit: top-dose inhibition of complex formation; Q14974; Rango CFP/YFP FRET sensor + importin beta, 45 min; 0.031% of 340,000 active; AID 540263; active = rising FRET ratio curve, often small or poorly fitted; inconclusive = mostly compound fluorescence or quenching in the first reads; inactive = flat curves in all reads;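 note: potency is the fitted concentration of half-maximal effect; 0% = DMSO wells and 100% = buffer wells lacking importin beta; nearly all actives have a fitted effect of over 15% in size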
#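 FRET biosensor (snurportin 1 IBB flanked by EYFP and cerulean), 50 nM, with compound 5 min, then 0.125 microM importin beta in PBS, 1 mM DTT, 0.02% Tween-20, 0.1% BSA. CFP/YFP ratio read after 45 min at room temperature; pre-read flags interference.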
# GLA inh pH 4.5: alpha-galactosidase A (human) inhibition, pH 4.5; P06280; purified enzyme, 4-MU-alpha-Gal fluorescence, pH 4.5; activity change, negative = inhibition, % at 105 µM; 230,000 tested, under 10 active; AID 1467; inconclusive = small, poorly fitted or top-dose-only inhibition, or a rising curve; inactive = flat fitted curve, though single readings scatter; no compound was filed as active;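 note: 0% = full activity with enzyme and -100% = basal without enzyme; dose as in the result columns while the protocol names 77 µM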
# Target sequence (P06280 whole entry, looked up): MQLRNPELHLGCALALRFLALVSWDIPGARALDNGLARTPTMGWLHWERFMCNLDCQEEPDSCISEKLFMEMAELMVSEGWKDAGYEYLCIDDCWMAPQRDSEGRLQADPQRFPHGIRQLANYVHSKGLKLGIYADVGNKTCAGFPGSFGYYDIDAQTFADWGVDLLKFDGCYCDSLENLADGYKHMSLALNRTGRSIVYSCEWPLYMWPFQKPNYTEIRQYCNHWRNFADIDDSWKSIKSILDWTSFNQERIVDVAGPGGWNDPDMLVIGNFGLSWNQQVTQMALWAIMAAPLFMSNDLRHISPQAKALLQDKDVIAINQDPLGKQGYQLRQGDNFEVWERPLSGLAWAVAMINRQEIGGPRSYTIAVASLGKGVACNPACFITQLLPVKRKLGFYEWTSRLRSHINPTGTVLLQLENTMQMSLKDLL
# * hit, by the source's call; ? = inconclusive; / = no result given.
# The line under a structure holds: Rango dissoc inh, GLA inh pH 4.5, Rango complex inh, miR-21 reporter
> O=C1CCC(C(=O)OCC(=O)c2c[nH]c3ccccc23)=NN1
    -5%, 4, -1.3%, -5%
> CN(C)S(=O)(=O)c1ccc(S(=O)(=O)NCc2ccc3c(c2)OCO3)cc1
    -5%, /, 2.6%, 0%
> Cc1ccc(-c2nc(NCc3ccc(F)cc3)n(S(C)(=O)=O)n2)cc1
    5%, -2, -1.2%, -3%
> Cc1ccc(S(=O)(=O)N2CCN(C(=O)COc3ccc(C)nc3[N+](=O)[O-])CC2)c(C)c1
    -2%, 5, -6.1%, -12%
> CC1(C)CC(=O)c2cc(OCC(=O)N3CCOCC3)ccc2O1
    -18%, -2, -1.1%, -4%
> Cc1cccc(-n2c3nc(=O)[nH]c(=O)c-3cc3cc([N+](=O)[O-])ccc32)c1
    -11%, -8, ?, 18%
> COc1ccccc1C(=O)COC(=O)c1cc(=O)[nH]c2ccccc12
    5%, /, -1.1%, /
> O=C(COC(=O)CCN1C(=O)/C(=C\C=C\c2ccccc2)SC1=S)Nc1cc(F)ccc1F
    3%, 6, 0.0%, 26%
> CCO[C@@H]1OC(C(=O)O)=C[C@H](c2coc3ccccc3c2=O)[C@H]1CCCO
    -2%, 1, -1.6%, 0%
> Cc1c(C(=O)O)[nH]c2c1C(=O)CC(c1ccccc1)C2 (stereo unspecified)
    -3%, -5, 1.0%, -2%
> C=CCOn1c(=O)c(=O)n(OCc2ccccc2)c2ccccc21
    -2%, -12, 1.1%, -6%
> CCN(Cc1cnn(C)c1)C(=O)c1ccc2nc(Cc3cccc(Cl)c3)oc2c1
    10%, /, -0.6%, -3%
> NC(=O)NC(CC(=O)Nc1cccnc1)c1cccc(Br)c1 (stereo unspecified)
    -2%, /, 0.9%, 1%
> COc1ccc(-n2nc(C(=O)NCC(=O)N3CCC(C)CC3)c3ccccc3c2=O)cc1Cl
    0%, /, -1.8%, -24%
> CCN1C(=O)[C@H]2[C@@H](c3ccc(SC4CCCCC4)cc3)N[C@@](CC(C)C)(C(=O)OC)[C@H]2C1=O
    19%, /, 1.1%, /
> CCN(CC)C(=O)Nc1c(C)n(C)n(-c2ccccc2)c1=O
    -4%, -1, -4.3%, -9%
> O=C(NCc1cccnc1)C1c2ccccc2C(=O)N1Cc1ccco1 (stereo unspecified)
    ?, -6, ?, -5%
> Cc1occc1C(=O)NC1CCCN(Cc2ccc(CC(C)C)cc2)C1 (stereo unspecified)
    -9%, /, -0.7%, 15%
> O=C(O)c1cc(S(=O)(=O)Nc2cccc3ccccc23)c(Cl)cc1Cl
    1%, /, 0.1%, -3%
> COc1ccc(C(=O)Nc2ccc(S(=O)(=O)Nc3nccnc3OC)cc2)cc1OC
    -6%, 4, 1.8%, -12%
> Cc1ccc(-n2ncc(C(=O)NCc3ccc4c(c3)OCO4)c2NC(=O)c2ccco2)cc1C
    29%, 2, 0.4%, -10%
> Cc1nc(N2CCN(c3ccccn3)CC2)c2c(C)c(C(=O)Nc3ccc(Br)cc3C)sc2n1
    1%, /, -1.9%, -3%
> O=c1cc(N2CCc3ccccc3C2)[nH]c(=O)n1-c1ccccc1Cl
    -14%, 7, ?, -11%
> CNS(=O)(=O)c1ccc2c3c(cccc13)C(=O)N2C
    ?, /, ?, -4%
> COCCCNC(=O)CSc1nc2c(sc(=S)n2-c2cc(Cl)ccc2OC)c(=O)[nH]1
    10%, /, 4.4%, 1%
> COc1ccc(CCNC(=O)CN(CCc2ccccc2)S(C)(=O)=O)cc1
    15%, -3, -1.3%, -1%
> Cc1ccc(COC(=O)CCc2nc3ccccc3c(=O)[nH]2)cc1
    -1%, -1, 1.7%, 5%
> CCN1CCN(S(=O)(=O)c2ccc3c4c(cccc24)C(=O)N3CC)CC1
    ?, /, ?, /
> O=c1c(/C=N/O)coc2ccc3ccccc3c12
    -19%, 4, -2.0%, -36%
> CCc1ccc(NC(=O)CN(C(=O)N2CCN(CC)CC2)S(=O)(=O)c2ccc(C)cc2)cc1
    5%, /, 0.2%, /
> CCn1c(N2CCN(CC(=O)Nc3cccc(C)c3C)CC2)nc2ccccc21
    ?, -2, -0.4%, -1%
> COc1cc(NC(=O)c2cc(S(=O)(=O)N3CCCCC3)ccc2N2CCOCC2)cc(OC)c1
    10%, /, -1.4%, /
> CC1CCCCC1NC(=O)COC(=O)c1ccc2c(=O)n3c(nc2c1)CCC3 (stereo unspecified)
    1%, /, -2.5%, /
> O=C(NCCNc1ccc([N+](=O)[O-])cc1C(F)(F)F)c1ccccc1F
    -8%, 11, -0.5%, -8%
> O=C(C1CCN(S(=O)(=O)c2cnc[nH]2)CC1)N1CCN(c2ncccn2)CC1
    1%, 4, 2.7%, -7%
> O=C(Nc1ccc(C(=O)N2CCN(c3ccccn3)CC2)cc1)c1ccc(Br)o1
    -5%, /, -2.2%, /
> CC(=O)c1cccc(NC(=O)CC2S/C(=N/N=C3CCCCCC3)NC2=O)c1 (stereo unspecified)
    -4%, /, 3.6%, 2%
> O=C(Nc1ccc(NC(=O)C2CC2)cn1)c1ccccc1
    8%, /, 6.2%, -5%
> COCCN1C=C(C(=O)OC)C(c2ccc(OC)c(OC)c2)C(C(=O)OC)=C1
    ?, 10, ?, 0%
> Cn1c(=O)oc2cc(S(=O)(=O)NCc3ccccn3)ccc21
    2%, 1, -0.3%, 0%
> C/C(Cn1cnc([N+](=O)[O-])n1)=N\NC(=O)c1ccc(Br)cc1
    -3%, -7, 2.1%, -13%
> O=C(O)c1ccc2c(c1)C(=O)N(c1cccc(C(=O)/C=C/c3ccccc3)c1)C2=O
    8%, 3, -3.1%, -3%
> C=CCn1c(O)c(N=NC(=S)Nc2cccc(OC)c2)c2ccccc21
    10%, -10, 0.5%, 21%
> CCNC(=O)c1ccc(CSc2ccc(Cl)cc2)cc1
    11%, -1, -0.4%, -33%
> CCOc1cc(/C=C2\N=C(SC(C)C(N)=O)N(c3ccc(OC(F)F)cc3)C2=O)ccc1O (stereo unspecified)
    ?, /, ?, 22%
> CC1CCCCC1NC(=O)CSc1nnnn1C (stereo unspecified)
    7%, /, 1.4%, /
> Cc1ccc(NC(=S)NC(=O)/C=C/c2ccco2)c(O)c1
    -7%, -24, 5.4%, 2%
> CC(C)S(=O)(=O)CC(=O)c1ccc(Cl)cc1
    5%, 6, 0.8%, 0%
> CC1CCN(CC(=O)N2c3ccccc3CCc3ccccc32)CC1
    2%, 0, -0.4%, -3%
> Cc1c(C(=O)NCc2ccc3c(c2)cc(C)n3C)cccc1[N+](=O)[O-]
    -14%, 3, -1.4%, -14%
> O=S(=O)(c1ccccc1)N1N=C(c2ccccc2)CC1c1ccccc1 (stereo unspecified)
    2%, -2, -13%, -5%
> CCOC(=O)N1CCC(N(CCN(C)C)C(=S)Nc2cc(C)cc(C)c2)CC1
    1%, -12, 1.9%, -6%
> COc1ccc(-c2cc(C)no2)cc1S(=O)(=O)N(C)c1cccc(C)c1
    7%, /, -2.7%, 0%
> CCc1ccc(-c2cc(C(=O)NN3CCOCC3)c3ccccc3n2)cc1
    10%, 7, -1.2%, -27%
> CC(=O)Nc1ccc2c(c1)ncn2C
    1%, 0, -1.5%, -3%
> O=C(CSc1ccc(-c2cccnc2)nn1)Nc1ccccc1
    3%, /, -0.5%, 4%
> COc1cccc(C2NC(=O)c3ccccc3O2)c1OCc1ccccc1F (stereo unspecified)
    -6%, -1, -0.6%, 0%
> c1ccc(-c2csc(-n3cccn3)n2)cc1
    2%, 6, ?, -26%
> O=C(Oc1ccnc2cc(Cl)ccc12)N1CCCCCC1
    1%, 3, -0.9%, 2%
> Cc1cc(OCc2cc(C(=O)N3CCCCCC3)no2)cc(C)c1Cl
    1%, /, 0.4%, -67%

# Exported tab-delimited: entries from further up.
mol	Rango dissoc inh	GLA inh pH 4.5	Rango complex inh	miR-21 reporter
CC1CCCCC1NC(=O)CSc1nnnn1C (stereo unspecified)	7%	/	1.4%	/
Cc1ccc(NC(=S)NC(=O)/C=C/c2ccco2)c(O)c1	-7%	-24	5.4%	2%
CC(C)S(=O)(=O)CC(=O)c1ccc(Cl)cc1	5%	6	0.8%	0%
CC1CCN(CC(=O)N2c3ccccc3CCc3ccccc32)CC1	2%	0	-0.4%	-3%
Cc1c(C(=O)NCc2ccc3c(c2)cc(C)n3C)cccc1[N+](=O)[O-]	-14%	3	-1.4%	-14%

# Next section:
# The line under a structure holds: Rango dissoc inh, GLA inh pH 4.5, Rango complex inh, miR-21 reporter
> COc1ccc(NC(=O)CCCCC(=O)Nc2ccc(OC)cc2OC)c(OC)c1
    -2%, /, -6.5%, /
> CC(=O)Nc1ccc(S(=O)(=O)NCCC(=O)OCC(=O)NCc2ccccc2)cc1
    -17%, /, 2.3%, /
> O=[N+]([O-])c1cccc(S(=O)(=O)Nc2ccc(S(=O)(=O)NCC3CCCO3)cc2)c1 (stereo unspecified)
    -9%, /, -2.7%, -2%
> CC1CCN(C(=S)NC(=O)c2ccccc2)CC1
    2%, 7, 1.5%, -5%
> Cc1ccc2cccc(Oc3ccc([N+](=O)[O-])cc3[N+](=O)[O-])c2n1
    8%, 2, 4.6%, 0%
> Cc1ccc2nc(NC(=O)c3ccc4ncsc4c3)sc2c1
    3%, 15, ?, -42%
> C=CCN(C(=O)c1csnn1)C(C(=O)NC1CCCC1)c1ccccc1F (stereo unspecified)
    0%, /, 1.0%, 0%
> CSc1cccc(NC(=O)C(=O)NCc2ccccc2)c1
    14%, 2, -1.9%, -9%
> O=C(Nc1ccc([N+](=O)[O-])cc1)C(=O)Nc1cccc(C(=O)O)c1
    -3%, 2, -0.9%, 26%
> O=C(NC1CCNCC1)C1CCCCC1
    6%, /, 4.2%, 3%
> COCCCn1c(SCc2cc(=O)[nH]c3ccccc23)nnc1-c1ccco1
    0%, -2, 0.1%, -7%
> COc1ccc(CCN(C)Cc2ccc(C(=O)Nc3ccccc3)cc2)cc1OC
    0%, /, -2.9%, 13%
> CCc1c(C)nc(SCCOc2ccc(OC(C)C)cc2)[nH]c1=O
    12%, -3, -3.4%, -6%
> Cc1ccc(NC(=O)c2ccc(Cl)nc2)cc1S(=O)(=O)N1CCOCC1
    19%, /, 3.2%, /
> COc1ccccc1N(Cc1ccccc1)S(=O)(=O)c1cccc(C(=O)NCC2CCCO2)c1 (stereo unspecified)
    -10%, /, 5.2%, /
> C/C(=N\NC(=O)c1cccc(N/N=C(\C)c2ccccc2)c1)c1ccccc1
    -9%, 0, -0.9%, -66%
> O=C(NC1CCCCCC1)c1nnc(Cc2ccc(Cl)cc2)o1
    -10%, -12, -1.8%, -2%
> COCCCNC(=O)c1cc(S(=O)(=O)N2CCOCC2)ccc1SCc1cccc(OC)c1OC
    -13%, -2, 0.3%, -2%

# Given as tab-separated lines: entries from further up
molecule	Rango dissoc inh	GLA inh pH 4.5	Rango complex inh	miR-21 reporter
Cc1ccc2cccc(Oc3ccc([N+](=O)[O-])cc3[N+](=O)[O-])c2n1	8%	2	4.6%	0%
COc1ccccc1N(Cc1ccccc1)S(=O)(=O)c1cccc(C(=O)NCC2CCCO2)c1 (stereo unspecified)	-10%	/	5.2%	/
CCc1c(C)nc(SCCOc2ccc(OC(C)C)cc2)[nH]c1=O	12%	-3	-3.4%	-6%
CC1CCN(C(=S)NC(=O)c2ccccc2)CC1	2%	7	1.5%	-5%
COc1ccc(NC(=O)CCCCC(=O)Nc2ccc(OC)cc2OC)c(OC)c1	-2%	/	-6.5%	/
O=C(NC1CCNCC1)C1CCCCC1	6%	/	4.2%	3%
C=CCN(C(=O)c1csnn1)C(C(=O)NC1CCCC1)c1ccccc1F (stereo unspecified)	0%	/	1.0%	0%

# This is a subset. The share of hits here may be higher or lower than overall.
